High-throughput results as filed in PubChem.
gsp ag: activates gsp, the McCune-Albright syndrome mutation. 0.13% of 340,000 active. AID 624287. Potency, µM (highest dose often 76.9 µM), inactives show top-dose activation (cAMP increase), most hits filed as activators. gsp mutant cells, cAMP HTRF, 30 min; control for the full effect not named in the record; active = well fitted activation curve with a large enough effect; inconclusive = small, poorly fitted or top-dose-only effect, or another doubt; inactive = no such curve, though single readings can be large or run the other way; cell line not stated here;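 also: phosphodiesterase inhibitor Ro 20-1724 added with compounds to block cAMP breakdown; potency is read from the fitted curve at half-maximal effect; nearly all actives have a fitted effect of over 60% in size; about a fifth of the inactives were tested at one dose only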
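Cells stably selected in G418 were plated at 2000/well, grown 16-24 hr, then given compounds in DMSO with the PDE inhibitor […] (300 uM solution added) for 30 min at 37C; cAMP was read by HTRF.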
gsp antag: gsp mutant antagonism; AID 624288; 0.4% of 340,000 active; gsp-mutant cells, cAMP HTRF, 30 min; control for the full effect not named in the record; Potency, µM (series often up to 76.9 µM), for the others: at the highest dose activity change, negative = inhibition, usual class: inhibitors; active = falling curve of any shape with a large fitted effect; inconclusive = falling curve, mostly with a smaller effect; inactive = flat or rising curve; cell line not stated here;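 also: intracellular cAMP measured with PDE inhibitor Ro 20-1724 present during compound exposure; potency is read from the fitted curve at half-maximal effect; % is scaled to controls: 0 for no effect and ±100 for the full control effect; nearly all actives have a fitted effect of over 65% in size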
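G418-selected cells were plated in DMEM/10% FBS for 16-24 h at 37C, then treated with compounds plus the PDE inhibitor […] (300 uM solution added) for 30 min at 37C. Intracellular cAMP was measured by HTRF after 30 min lysis at room temperature.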
Menin MLL FP FL: menin-MLL binding inhibition, fluorescein peptide. Fluorescence polarization, fluorescein-MLL peptide displacement from menin. FP activity change, % at 61.4 µM. 290,000 tested, under 10 active. AID 1766; inconclusive = falling polarisation curve, or a change in total fluorescence; inactive = total fluorescence flat and polarisation flat or rising; no compound was filed as active; the % refers to the polarisation; negative = inhibition;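 also: % of control where 0% means no effect; inhibitors lower the polarisation; unlabelled MLL peptide was the positive control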
ClpP mod: qHTS Assay for Activators of ClpP. 1.9% of 340,000 active. ATP-dependent Clp protease proteolytic subunit (Bacillus subtilis (strain 168)), P80244. Potency, µM (titrated, usually from 57.5 µM), for the others: at the highest dose activity change, negative = active. purified B. subtilis ClpP, FRET peptide cleavage, 20 min; active = well fitted falling curve with a large enough effect; inconclusive = small, poorly fitted or top-dose-only effect; inactive = no such curve, though single readings can be large or run the other way; also: potency is read from the fitted curve at half-maximal effect; the source files actives as falling curves though it sought activators and does not explain the sign; nearly all actives have a fitted effect of over 65% in size; many hits overshoot -100%
Target sequence (P80244 whole entry, looked up): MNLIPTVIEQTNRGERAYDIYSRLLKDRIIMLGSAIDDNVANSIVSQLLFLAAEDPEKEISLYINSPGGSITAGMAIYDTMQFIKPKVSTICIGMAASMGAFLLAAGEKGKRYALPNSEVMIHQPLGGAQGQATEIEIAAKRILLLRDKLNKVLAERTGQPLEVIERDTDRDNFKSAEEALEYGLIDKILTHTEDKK
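Buffer: 100 mM Tris/HCl pH8, 100 mM KCl, 0.05% low protease BSA, 2.5% glycerol, 0.01% Tween-20. ClpP 10 microg/mL final; 20 min RT; delta FRET normalized to ADEP and DMSO controls.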
TRPV1 PAM: human TRPV1 potentiation. Q8NER1. TRPV1-expressing cells, Fluo-8 calcium influx, capsaicin EC20 potentiation; host cell line not named in the record; control for the full effect not named in the record. potentiation, % at 8.33 µM. 0.02% of 320,000 active. AID 540277; active means potentiation above 80%; inconclusive means 30% to 80%; inactive means below 30%; also: 0% is about no effect
Target sequence (Q8NER1 whole entry, looked up): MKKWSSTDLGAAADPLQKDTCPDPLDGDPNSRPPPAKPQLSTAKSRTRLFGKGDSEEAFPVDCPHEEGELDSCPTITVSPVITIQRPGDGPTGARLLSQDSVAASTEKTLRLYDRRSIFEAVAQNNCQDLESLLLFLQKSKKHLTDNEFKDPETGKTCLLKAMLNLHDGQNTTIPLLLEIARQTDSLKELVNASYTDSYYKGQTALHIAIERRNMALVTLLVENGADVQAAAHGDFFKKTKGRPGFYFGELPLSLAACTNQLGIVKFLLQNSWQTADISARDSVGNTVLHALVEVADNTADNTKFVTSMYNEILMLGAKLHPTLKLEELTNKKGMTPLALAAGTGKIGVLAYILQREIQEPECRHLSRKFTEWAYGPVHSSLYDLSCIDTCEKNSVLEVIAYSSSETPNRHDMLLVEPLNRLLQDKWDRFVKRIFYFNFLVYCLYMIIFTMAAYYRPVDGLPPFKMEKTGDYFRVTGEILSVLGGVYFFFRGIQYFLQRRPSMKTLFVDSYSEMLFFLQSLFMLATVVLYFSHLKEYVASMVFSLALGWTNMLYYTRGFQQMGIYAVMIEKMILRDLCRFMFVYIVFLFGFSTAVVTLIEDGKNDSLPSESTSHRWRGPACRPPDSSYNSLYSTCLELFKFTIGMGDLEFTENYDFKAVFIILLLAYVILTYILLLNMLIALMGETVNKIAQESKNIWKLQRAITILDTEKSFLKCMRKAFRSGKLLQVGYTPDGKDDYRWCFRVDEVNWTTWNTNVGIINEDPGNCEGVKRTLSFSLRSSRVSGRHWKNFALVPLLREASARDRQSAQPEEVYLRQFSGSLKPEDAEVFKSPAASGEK
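TRPV1-expressing cells were cultured overnight at 35.5C and loaded with Fluo-8 calcium dye for 40 to 90 min at room temperature. After a 10 s baseline, compound was added and calcium influx was read kinetically for 3 min (ex 480/em 520 nm).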
Sfp PPTase inh: Sfp phosphopantetheinyl transferase inhibition | Biochemical Sfp PPTase activity, qHTS | Potency, µM, for inactives: max response, negative = inhibition, hits mostly inhibitors | 3.5% of 310,000 active | AID 1490; active = well fitted inhibition curve with a large enough effect; inconclusive = small, poorly fitted or top-dose-only effect, or another doubt; inactive = no such curve, though single readings can be large or run the other way;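 also: the enzyme is Sfp with the accession as filed and its product quenches rhodamine fluorescence; potency is read from the fitted curve at half-maximal effect; 0% = enzyme reaction without inhibitor and -100% = no enzyme wells; top concentration of the series not given in the record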
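Step 1, compound plus 15 nM Sfp-PPTase, 15 min, room temperature. Step 2, add rhodamine-CoA (5 uM) and BHQ-2-YbbR (12.5 uM). Step 3, read 525/598 nm fluorescence at 0 and 30 min.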
CtBP-E1A inh: blocks the CtBP interaction with E1A. activity change, % (concentration not given with the values). AlphaScreen GST-E1A/His-CtBP binding, 1536-well; stronger effect = lower value; control for the full effect not named in the record. 0.49% of 340,000 active. AID 651724; in the data active means activity change below about -65%; inconclusive means about -30% to -65%; inactive means above about -30%; also: % is scaled to controls: 0 for no effect and ±100 for the full control effect
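Homogeneous bead-based format: GST-tagged E1A captured on glutathione donor beads, His-tagged CtBP on nickel acceptor beads; compounds precede bead addition by 2 h at 37 °C.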
* = called active by the depositor; ? = inconclusive; . = not tested or not shown; & = joins results of further samples; [ ] = another dose, or the depositor's remark.

SMILES	gsp ag	gsp antag	Menin MLL FP FL	ClpP mod	TRPV1 PAM	Sfp PPTase inh	CtBP-E1A inh
CCCCOc1ccc(CSC2=NCCN2)cc1[N+](=O)[O-]	14%	7%	2.8	-1.5%	-14	-3%	.
Cc1ccc(C)c(S(=O)(=O)N(C(=O)c2ccncc2)c2ccc(OC(=O)c3ccncc3)cc2)c1	3%	-5%	-1.0	0.4%	-6	6%	.
Cn1c(=O)oc2cc(S(=O)(=O)NCC3CCCO3)ccc21 (stereo not drawn)	4%	8%	.	-3.9%	.	.	-2
CC(CNC(=O)CC(C)(C)C)NC(=O)CC(C)(C)C (stereo not drawn)	14%	14%	-0.4	2.9%	-1	5%	-1
CCOc1ccc(-c2nnn(CC(=O)c3ccc4c(c3)OCCO4)n2)cc1OCC	-39%[inhibitor]	-2%	-1.8	-11%	-8	6%	13
COc1ccc([N+](=O)[O-])cc1C(=O)NCCOc1ccc(Cl)cc1	-3%	?	-2.0	2.3%	21	1%	.
O=C(CSc1nnc(Cc2ccccc2)n1Cc1ccco1)NC12CC3CC(CC(C3)C1)C2	22%	-5%	4.4	-0.2%	2	-12%	-3
CCOc1ccccc1C1C(C(=O)OC)=CN(C)C=C1C(=O)OC	28%	2%	-1.0	-21%	-2	8%	6
COc1cccc(CC(=O)OCC(=O)N(C)CC(=O)Nc2ccccc2Cl)c1	?	-1%	.	0.5%	11	.	.
CN(C(=O)CCNC(=O)Cn1cnc2ccccc2c1=O)c1ccc(Br)cc1	-18%[15.4 µM]	-20%	-0.2	.	4	17%	-2
COc1ccc(C(NC(=O)C(C)C)c2c(O)ccc3ccccc23)cc1OC (stereo not drawn)	12%[15.4 µM]	-5%	4.6	28µM*	15	-7%	-1
Cc1c(NC(=O)CSc2ccccc2Cl)c(=O)n(-c2ccccc2)n1C	1%	0%	0.2	.	11	3%	6
COC(=O)c1ccc(NC(=O)COC(=O)C2CC(=O)N(Cc3ccccc3)C2)cc1 (stereo not drawn)	15%	1%	-1.6	-3.7%	-7	7%	.
Cc1cc(=O)oc(C)c1C(=O)NCc1c(F)cc(F)cc1F	-34%[inhibitor]	-13%	3.7	-0.4%	15	12%	1
O=C(N/C(=C\c1cccnc1)C(=O)N1CCOCC1)c1cccc(Br)c1	-32%[inhibitor]	-2%	0.6	1.4%	8	12%	1
Cc1nn(C/C(C#N)=N\O)c(C)[n+]1N	-17%	12%	2.7	-6.0%	-8	-2%	0
Cn1c(CN2CCN(CCO)CC2)c(C#N)c2ccccc21	18%	3%	2.8	.	4	28%	0
Cc1c(CNCCC2=CCCCC2)c(C(=O)O)c(C)n1Cc1ccccc1	-3%	-2%	-4.2	0.8%	-7	11%	-2
CC(C)CC(=O)NC(=S)Nc1ccc(F)cc1F	-51%[inhibitor]	4%	-1.1	0.8%	0	12%	.
O=c1oc2ccccc2c2c1cnc1ccccc12	.	4%	.	-23%	.	.	?
CCOC(=O)c1ccc(NC2c3ccccc3C(=O)N2c2ccc(C)cn2)cc1 (stereo not drawn)	4%	11%	0.0	-0.4%	-2	5%	3
CCOc1ccc(OCC)c(-c2c(=O)n(OCc3ccc(Cl)cc3)c3ccccc3[n+]2[O-])c1	-7%	-10%	9.4	0.7%	24	100µM*	-18
CCOc1ccc(NC(=S)N2CCc3cc(OC)c(OC)cc3C2COc2ccc3c(C)cc(=O)oc3c2)cc1 (stereo not drawn)	-17%	1%	2.1	8.9µM*	3	-2%	-4
O=C(Cc1ccccc1)NN1CCCCC1	-6%[15.4 µM]	3%	-3.4	.	-13	17%	0

Structures shown so far that have an aryl thioether with sulfur outside any ring, in the order listed:
SMILES	gsp ag	gsp antag	Menin MLL FP FL	ClpP mod	TRPV1 PAM	Sfp PPTase inh	CtBP-E1A inh
O=C(CSc1nnc(Cc2ccccc2)n1Cc1ccco1)NC12CC3CC(CC(C3)C1)C2	22%	-5%	4.4	-0.2%	2	-12%	-3
Cc1c(NC(=O)CSc2ccccc2Cl)c(=O)n(-c2ccccc2)n1C	1%	0%	0.2	.	11	3%	6

The listing continues.
SMILES	gsp ag	gsp antag	Menin MLL FP FL	ClpP mod	TRPV1 PAM	Sfp PPTase inh	CtBP-E1A inh
CCc1ccc(OCc2nnc(SCC(=O)Nc3cccc(C(=O)N4CCOCC4)c3)o2)cc1	14%	-13%	2.2	0.4%	-6	3%	.
Cn1c(CC2Sc3ccccc3NC2=O)nnc1SCC(=O)c1ccc(Cl)cc1 (stereo not drawn)	-4%[15.4 µM]	-9%	?	-0.6%	5	45µM*	-7
CC(C)c1ccc(N2C(=O)/C(=C/N(C)C)SC2=S)cc1	?	-7%	?	0.0%	-4	28%	.
CCC(=O)NCCc1nc2ccccc2[nH]1	-34%[inhibitor]	1%	-1.3	0.5%	3	20%	11
CCn1c(CC(=O)Nc2ccc(C)cc2)nnc1SCC(=O)NCc1ccccc1	-20%	-3%	3.6	1.0%	-17	15%	-2
O=S(=O)(NCc1ccc(F)cc1)c1ccc(-c2cnc(C3CC3)o2)cc1	30%	-3%	.	3.4%&4.1%	-4	12%	38
Cc1[nH]nc(N=CC2=C(O)CC(C)(C)CC2=O)c1-c1ccc(Cl)cc1	-14%&-17%	-33%&-17%	-2.0	-9.8%	3	-24%	2&1
COc1ccc(S(=O)(=O)NCCC(=O)NCc2ccccc2)cc1	8%	-7%	-5.8	1.4%	1	12%	24
COc1ccccc1C(CCN(Cc1cccs1)C(C)=O)c1ccco1 (stereo not drawn)	35%	-8%	15	2.5%	19	20µM*	-2
CC1=Nc2ccc(C)c3nc(C)cc(c23)N1c1ccc(C)cc1	15%	5%	.	-17%	.	.	-2
COc1cccc2c1O/C(=N\O)C(C(=O)Nc1cccc(C)c1C)C2 (stereo not drawn)	-19%[15.4 µM]	-1%	1.4	.	5	-1%	7
CCOc1ccc(C(=O)C[n+]2ccccc2C)cc1	-17%[15.4 µM]	9%	3.7	-1.5%	-8	16%	6
Cc1c(NC(=S)NC(NC(=O)C(C)(C)C)C(Cl)(Cl)Cl)c(=O)n(-c2ccccc2)n1C (stereo not drawn)	-1%	6%	2.9	-1.6%	9	2%	8
CN(C)C(=O)c1c(-c2ccccc2)oc2ccc(O)cc12	-41%[inhibitor]	-8%	2.8	20µM*	-8	-7%	8
Cc1nc(SCc2ccccc2)c2ccsc2n1	-13%[15.4 µM]	2%	4.8	.	11	1%	4
O=C(NCC1CCCN1S(=O)(=O)c1cccs1)c1cccc(Cl)c1 (stereo not drawn)	25%[15.4 µM]	-5%	.	.	-25	.	0
CCCn1c(=O)n(N)c2ccccc21	-1%	21%	5.5	-2.6%	3	10%	2
O=C(O)CCCNC(=O)/C(=C\c1ccc(Cl)cc1)NC(=O)c1ccccc1Br	-15%	-2%	-4.5	.	7	7%	0
COc1cc2ccccc2cc1C(=O)Nc1ccc(O)cc1	-4%[15.4 µM]	7%	6.2	-0.4%	-8	6%	2
CCCc1cc(=O)oc2cc(OCC(=O)NCc3ccccn3)ccc12	7%	-7%	.	4.9%	23	6%	.
Cc1ccc(COC(=O)c2cc(S(=O)(=O)N3CCOCC3)ccc2C)cc1	-11%	-5%	.	-0.7%	2	.	3
Cc1cccc(C(=O)NCc2ccc(S(N)(=O)=O)cc2)c1[N+](=O)[O-]	26%	17%	0.9	28µM*	-6	-14%	-7
COc1ccc(/C=C/C(=O)Nc2cc(C)on2)cc1	7%	8%	-2.3	-26%	11	-14%	9
Cn1ncc(N=Cc2ccc([N+](=O)[O-])cc2)c1C(=O)N1CCOCC1	-14%	-8%	-0.7	0.0%	4	4%	4
O=C(NCCc1ccccc1)C1CCCN(S(=O)(=O)c2cccnc2)C1 (stereo not drawn)	-20%	-9%	0.3	1.3%	9	12%	0
O=C(NCCc1ccc(F)cc1)c1cccc(NC(=O)c2ccccc2)c1	7%	-3%	5.6	-0.7%	1	6%	-9
COc1ccc(S(=O)(=O)NCCc2csc(C)n2)cc1C	2%	-27%	3.0	0.3%	0	12%	0
CCCN1C(=O)c2ccccc2NC1c1ccc(OC)c(CSc2ccccn2)c1 (stereo not drawn)	-1%[15.4 µM]	-10%	4.8	-2.3%	-3	-4%	-3
Cc1c(C(=O)N2CCN(c3ccccc3)CC2)oc2c(Cl)cccc12	9%	-14%	.	-0.9%	6	.	.
CN1CCN(c2ccc(NC(=O)c3ccc4ccccc4c3)cc2)CC1	-21%[15.4 µM]	2%	-7.5	.	-16	-15%	-12
CCOc1cccc(-c2c(C(=O)N/N=C(\C)c3cccs3)nnn2-c2nonc2N)c1	14%	?	.	-1.3%	-33	23%	.
COc1ccc(OC)c(NC(=O)Cc2coc3ccc(C)cc23)c1	9%	-19%	1.1	-1.2%	11	-14%	-6
Cc1ccc(N(CC(=O)N(C)Cc2ccccc2)S(C)(=O)=O)cc1C	15%	4%	-1.4	-1.7%	-11	22%	-5
CCO/N=C(\C)c1c(O)cc(C(C)C)n(-c2ccccc2)c1=O	-68%[inhibitor]	10%	3.9	1.3%	13	-5%	9
COc1ccc(OCCCn2cc(/C=C3/C(=N)N4C=C(C)SC4=NC3=O)c3ccccc32)cc1	-18%	13%	-5.4	-4.6%	21	15%	1
O=C(COc1ccccc1)n1nc(-c2ccc(Cl)cc2)nc1NCc1ccco1	23%	3%	2.2	1.3%	0	4%	0
CN(C)S(=O)(=O)n1cc(/C=C(\NC(=O)c2ccccc2Cl)C(=O)NCCCn2ccnc2)c2ccccc21	13%	-16%	6.3	-1.4%&-1.1%	24	9%	-11
COc1ccccc1OCCCOc1ccc([N+](=O)[O-])cc1Cl	28%	-5%	-1.3	-0.3%	25	-4%	-1
Cn1nc(C(=O)Nc2nc3ccccc3[nH]2)ccc1=O	43%	2%	-2.2	.	1	-13%	-21
COc1ccc(C(=S)N(C)C)cc1OC	-3%	5%	3.9	-3.3%	-4	45µM*	-2
CCOC(=O)N1CCN(CC(=O)Nc2ccc(F)c(F)c2)CC1	-34%[15.4 µM]	.	5.0	.	-5	2%	10
O=C(NCCOc1ccccc1)c1cc2ccccc2o1	-26%	9%	2.5	0.0%	-1	8%	3
C/C(=N\Nc1cccc2cccnc12)c1ccc(C)cc1	?	-19%	-1.0	2.1%	6	?	-15
Cc1cccc(NS(=O)(=O)c2ccc(C(=O)N3CCC3)cc2)c1C	17%[15.4 µM]	-7%	.	.	7	.	0
COc1ccccc1OCC(=O)Nc1ccc(S(=O)(=O)N2CCCCCC2)cc1	-41%[inhibitor]	5%	8.5	-0.4%	10	14%	10
